T cruzi inh: inhibitors of intracellular T. cruzi growth, primary screen, luminescence, NIH3T3 host cells; T. cruzi beta-gal in NIH3T3, 90 h; inhibition, % (test concentration not listed); 300,000 tested, 1.4% active;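 active = mean inhibition across valid replicates above about 55%, limit read from the data; inconclusive = mean below that limit but half or more replicates reach it; inactive = mean below it, under half of replicates reach it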;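 also: signal also drops with host cell toxicity which is not excluded here; 0% = plate median of DMSO wells and 100% = zero luminescence signal; higher percent means less beta-gal luminescence so fewer parasites; stock transfer was 50 nL into about 50 µL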
RanGTP-Impb inh: inhibitors of RanGTP-importin-beta interaction, primary screen, biochemical, FRET, CFP-Ran, YFP-importin-beta, homogeneous; Ran GTPase (GTP-bound) - importin-beta complex; inhibition, % (no concentration beside the values); 300,000 tested, 1.1% active; cell-free CFP-Ran/YFP-importin-beta FRET ratio;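 active = most replicates above 15%; inconclusive = exactly half above 15%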;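 also: 0% = DMSO wells and 100% = Ran loaded with GDP instead of GTP; wells of about 40 µL received 100 nL stock; the first replicate is given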
Beta apoptosis: inhibitors of cytokine-induced beta cell apoptosis, primary screen, luminescence. protection from apoptosis, % (no concentration beside the values). 300,000 tested, 0.8% active. INS-1E cytokine-induced death, ATP luminescence, 48 h; percent of positive-control rescue, neutral wells zero. AID 435005, 2010;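 active = all replicates at 75% or more, or half of them and the mean; inconclusive = half reach 75% but not the mean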;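 also: 0% = cytokine-treated negative control wells and 100% = positive control rescue; higher means more ATP so stronger rescue from cytokine killing; wells of about 40 µL received 100 nL stock; the first replicate is given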
Ecoli rRNA inh: reduced GFP signal of wild-type E. coli, primary screen, bacterial rRNA inhibitor project, GFP/RFP fluorescence, OD600, single point; 350,000 tested, 1.6% active; GFP signal change (wild-type ribosome), % (concentration not given with the values); E. coli WT GFP vs humanized-ribosome RFP mutants, 24 h; hits give low values; DMSO median 0, no signal -100;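 active = significant combined selectivity score with lowered wild-type GFP, culture density cut under 30%, mutant RFP and density less affected; inactive = any of these conditions unmet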; also: one replicate is shown; some compounds called inactive have numbers as strong as hits
AF4-AF9 inh: inhibitors of AF4 peptide binding to AF9, primary screen, biochemical, AlphaScreen, biotin-AF4 peptide, FLAG-AF9, single point; Protein AF-9 (Homo sapiens), P42568; inhibition, % at 10 µM; 350,000 tested, 0.47% active;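 active = every replicate reaching a set inhibition limit, whatever the replicate mean, cut at about 25% in these data; inconclusive = mean inhibition reaches that limit but some replicates miss it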;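 also: 0% = plate neutral control median and 100% = total signal loss; the record names both 10 and 1 µM as test concentration; the first replicate is given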
Target sequence (P42568 whole entry, looked up): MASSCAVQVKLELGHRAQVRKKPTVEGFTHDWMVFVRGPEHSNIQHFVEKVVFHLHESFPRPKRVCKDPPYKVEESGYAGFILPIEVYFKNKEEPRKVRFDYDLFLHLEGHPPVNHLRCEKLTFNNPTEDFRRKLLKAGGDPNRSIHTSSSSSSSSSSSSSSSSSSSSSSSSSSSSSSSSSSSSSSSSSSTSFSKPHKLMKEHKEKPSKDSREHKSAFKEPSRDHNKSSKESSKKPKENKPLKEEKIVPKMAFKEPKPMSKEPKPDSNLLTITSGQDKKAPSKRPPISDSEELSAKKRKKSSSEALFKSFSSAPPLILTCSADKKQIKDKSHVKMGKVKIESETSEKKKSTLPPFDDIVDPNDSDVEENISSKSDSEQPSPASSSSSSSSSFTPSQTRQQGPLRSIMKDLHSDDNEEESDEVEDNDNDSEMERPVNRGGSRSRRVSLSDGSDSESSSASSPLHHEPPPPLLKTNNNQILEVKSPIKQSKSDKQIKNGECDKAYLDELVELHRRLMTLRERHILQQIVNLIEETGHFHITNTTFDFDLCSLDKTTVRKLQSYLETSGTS
Calb FLC: C. albicans growth inhibition with fluconazole, primary screen, CaCi-2 strain, Alamar Blue fluorescence; C. albicans CaCi-2 (fluconazole-resistant clinical isolate) + fluconazole, 48 h; 300,000 tested, 0.57% active; growth inhibition, % (test concentration not listed);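 active = most replicates above 75%; inconclusive = exactly half above 75%; inactive = most below 75%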;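 also: all wells also contain fluconazole at 8 µg/ml as a sub-toxic cotreatment; 0% = median of DMSO wells and 100% = median of geldanamycin control wells; wells of about 8 µL received 7.5 nL stock; the first replicate is given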
Vif TR-FRET: inhibitors of Vif binding to APOBEC3G peptide, primary screen, biochemical, TR-FRET, GST-Vif 1-94, biotin-A3G peptide, dose response retest (AID 1117319) | Virion infectivity factor (Human immunodeficiency virus type 1 group M subtype B (isolate … | TR-FRET GST-Vif / biotin-A3G peptide binding; higher % means a stronger effect; test concentration not given here; strong numbers were not always called active | inhibition, %; hits with a dose series show IC50 in µM | 260,000 tested, 0.57% active;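 active = above the screen mean plus three standard deviations and confirmed in dose response; inconclusive = results disagree or hit not tested in dose response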;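 also: Vif residues 1-94 fused to GST binding biotinylated APOBEC3G peptide 110-148; 0% = full assay without inhibitor and 100% = GST in place of GST-Vif; retest series ran down from 100 µM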
Bfl-1 A1 inh: caspase 3/7 activation in MEF A1-2A-BIM cells, primary screen, A1 inhibitor project, cell-based, luminescence, HTS; Caspase-Glo 3/7 luminescence, 3 h; percent of clofoctol response, vehicle zero; caspase activation, % (test concentration not listed); 330,000 tested, 0.066% active; AID 2462, 2010;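 active = over half of replicate activation scores above 10%, or exactly half above 10 with the replicate mean above 10; inconclusive = replicate mean below 10 yet half the replicates above 10; inactive = over half of replicates below 10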;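 also: wells of about 30 µL received 50 nL stock; many hits fall short of the cut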
Ecoli rRNA inh OD600: also measured in Ecoli rRNA inh; calls as there; OD600 change, %; measured here: OD600 growth;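 optical density of the mix in the first replicate; 0 = DMSO median and -100 = no signal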
Ecoli rRNA inh RFP: second read-out of Ecoli rRNA inh, no call of its own (marks repeat the call); RFP signal change, %; measured here: RFP humanized mutant strains;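 first replicate; 0 = DMSO median and -100 = no signal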
Numbers without * were called inactive; ? = inconclusive; . = not tested or not shown; & = joins results of further samples.

SMILES | T cruzi inh | RanGTP-Impb inh | Beta apoptosis | Ecoli rRNA inh | Ecoli rRNA inh OD600 | Ecoli rRNA inh RFP | AF4-AF9 inh | Calb FLC | Vif TR-FRET | Bfl-1 A1 inh
Cc1ccc2c(Cl)c(C(=O)N/N=C/c3cccn3C)sc2c1 | -8.0 | 4.0 | 10.8 | -21.6* | -9.1* | -3.7* | 0.7 | -16.2 | 21.3% | -4.0
Fc1ccccc1-c1nc(NCc2ccccc2)c2ccccc2n1 | 17.0 | 0.3 | 11.0 | -44.8 | -76.1 | -7.4 | -2.5 | 6.4 | -3.8% | -1.1
Cc1cccc(OCC(=O)N/N=C\c2cccn2C)c1C | 3.8 | -2.0 | 0.2 | -13.9 | -16.9 | -0.4 | -0.9 | -3.7 | 1.8% | -0.9
COCc1cc(C(C)=O)ccc1OCC(=O)Nc1ccc(NC(C)=O)cc1 | -3.0 | -3.4 | -7.8 | 3.0 | -2.2 | 1.0 | 1.9 | 0.6 | 20.3% | 0.4
c1ccc2c(Cn3ccnc3)cccc2c1 | 32.7 | 1.2 | -6.5 | -1.4 | -8.0 | -1.1 | 0.8 | 17.4 | . | 0.8
CCOC(=O)c1cnc2sccn2c1=O | -11.9 | 3.6 | -8.9 | 13.4 | 7.6 | -4.1 | -26.7 | 20.9 | 21.3% | 0.1
CC(=O)OCCN1CCN(C(=O)CN2C(=O)NC(c3ccccc3)(c3ccccc3)C2=O)CC1 | 0.9 | -1.2 | -6.0 | 13.3 | 2.3 | 1.1 | -6.2 | 8.6 | . | -0.2
CCOC(=O)Nc1ccc2c(CNC(C)c3ccccc3OC)cc(=O)oc2c1 (stereo unspecified) | 10.3 | -0.5 | 3.6 | -1.7 | -14.1 | 4.9 | -0.9 | -1.8 | . | -0.1
COc1ccc(Cc2nnc(NC(=O)C3CC(=O)N(CCc4ccc(F)cc4)C3)s2)cc1OC (stereo unspecified) | -8.3 | 5.0 | -6.3 | -1.9 | 5.1 | 2.5 | 0.1 | 2.4 | . | 0.5
O=C(NCC(=O)N1CCN(c2ncc(C(F)(F)F)cc2Cl)CC1)c1ccc(Br)o1 | 16.8 | -0.3 | . | 2.8 | 0.6 | -1.6 | 0.4 | -9.8 | . | 1.6
C=CCN1C=C2C(=O)C(C)(OC(=O)CCC(=O)OC)C(=O)C(Br)=C2C=C1c1ccc(OC)cc1 (stereo unspecified) | 7.5 | 0.6 | 1.2 | . | . | . | . | 10.1 | ? | 0.4
CC(C)(C)c1nc(SCC(=O)N2CC(=O)Nc3ccccc32)c2ccccc2n1 | -9.2 | 7.6 | -9.0 | 16.6 | 5.9 | -1.5 | -2.5 | -15.9 | -20.4% | -0.1
CCCCC(=O)Nc1ccccc1C(=O)N1CCOCC1 | -7.6 | 3.5 | -0.8 | . | . | . | . | 0.5 | 0.2% | 0.2
O=C1CS/C(=N\NC(=O)c2ccccc2)N1 | -9.5 | -2.7 | . | . | . | . | -3.2 | -2.3 | 2.5% | -0.4
CC(OC(=O)c1ccc(Cl)nc1)C(=O)NCc1ccc2c(c1)OCO2 (stereo unspecified) | -3.5 | 1.7 | -1.0 | -6.0 | 7.3 | -2.9 | -1.2 | -1.8 | 2.3% | -1.1
CCn1c(COc2ccccc2)nnc1SCC(=O)Nc1ccc(N2CCOCC2)cc1 | -0.5 | -2.0 | . | 10.5 | -0.2 | 1.0 | 0.6 | -1.4 | -5.0% | 0.2
COC(=O)C1=C(C)N(C)C(=O)NC1c1ccc(O)c(OC)c1 (stereo unspecified) | 0.9 | 9.5 | . | 4.7 | 10.1 | -3.2 | 0.9 | 4.1 | -2.3% | -0.4
CNC(=O)CSc1nnnn1-c1ccc(C)cc1C | -1.7 | 5.3 | -2.9 | . | . | . | . | -0.3 | 0.8% | -0.1
O=c1c2ccccc2nc(SCc2nnc(-c3ccccc3)o2)n1-c1ccccc1 | 6.2 | -0.4 | 2.4 | -6.0 | 21.2 | 6.2 | 1.1 | 25.3 | . | 0.0
COC(=O)NC1CCC(CC2CCC(NC(=O)OC)CC2)CC1 (stereo unspecified) | 3.9 | -1.5 | -6.3 | . | . | . | . | . | -7.6% | 1.3
CC1(C)CC(=O)C/C(=N\NC(=O)c2cccs2)C1 | -13.7 | -12.4 | -6.3 | . | . | . | . | -2.1 | . | 0.0
O=C(COC(=O)CSc1ccc([N+](=O)[O-])cc1)NC1CCCCCCC1 | 0.3 | 3.0 | -0.3 | -2.4 | -6.8 | -0.7 | -11.1 | . | 9.1% | 0.3
COC(=O)c1ccccc1NC(=O)N1c2ccccc2Sc2ccccc21 | 1.2 | -1.5 | -0.5 | . | . | . | . | -20.2 | . | 1.6
Cc1ccc(C(=O)C[n+]2cccc3ccccc32)cc1 | 59.2* | -8.9 | 0.9 | . | . | . | . | -57.1 | -2.0% | -0.7
CCCNC(=O)Cn1nc(C)n2c(cc3cc(F)ccc32)c1=O | 0.9 | 1.9 | 3.7 | 7.5 | 10.6 | 1.3 | 1.7 | 2.9 | -10.5% | 0.4

Record cards, from the list above. Order of values: T cruzi inh | RanGTP-Impb inh | Beta apoptosis | Ecoli rRNA inh | Ecoli rRNA inh OD600 | Ecoli rRNA inh RFP | AF4-AF9 inh | Calb FLC | Vif TR-FRET | Bfl-1 A1 inh
CCCNC(=O)Cn1nc(C)n2c(cc3cc(F)ccc32)c1=O as listed: 0.9 | 1.9 | 3.7 | 7.5 | 10.6 | 1.3 | 1.7 | 2.9 | -10.5% | 0.4
O=C1CS/C(=N\NC(=O)c2ccccc2)N1 as listed: -9.5 | -2.7 | . | . | . | . | -3.2 | -2.3 | 2.5% | -0.4

Three entries out of the list above, arranged by the value under Bfl-1 A1 inh, lowest first:
Molecule	Bfl-1 A1 inh
CNC(=O)CSc1nnnn1-c1ccc(C)cc1C	-0.1
CCn1c(COc2ccccc2)nnc1SCC(=O)Nc1ccc(N2CCOCC2)cc1	0.2
COC(=O)NC1CCC(CC2CCC(NC(=O)OC)CC2)CC1 (stereo unspecified)	1.3

Other structures follow:
SMILES | T cruzi inh | RanGTP-Impb inh | Beta apoptosis | Ecoli rRNA inh | Ecoli rRNA inh OD600 | Ecoli rRNA inh RFP | AF4-AF9 inh | Calb FLC | Vif TR-FRET | Bfl-1 A1 inh
CC(=O)c1cc(NC(=O)c2ccc([N+](=O)[O-])cc2)c(=O)oc1C | -38.9 | -0.8 | -9.4 | 17.9 | 16.4 | 2.0 | -5.3 | -3.2 | 18.7% | 0.7
CN(CC(=O)NC(=O)NC1CCCCC1)Cc1ccccc1 | . | . | -2.4 | 2.6 | -8.1 | 4.0 | -0.7 | . | . | -0.9
Fc1ccc(C2c3[nH]c4ccccc4c3CCN2Cc2cccn2-c2ncccn2)cc1 (stereo unspecified) | 69.7* | 0.1 | 4.3 | 2.1 | -8.1 | 1.9 | 6.7 | -20.7 | -1.9% | 0.0
Cc1cc(Nc2ccccc2F)n2nc(C)nc2n1 | -10.9 | 1.2 | -2.0 | 5.8 | 1.6 | -2.6 | 0.3 | 14.6 | -4.7% | 1.3
Cc1cc(N2C(=O)CC(C(C)c3ccccc3)C2=O)no1 (stereo unspecified) | -6.3 | -0.9 | -0.2 | . | . | . | . | 2.3 | -0.4% | -1.2
COc1cccc(SCc2noc(C(=O)NCC3CCCO3)c2C(=O)O)c1 (stereo unspecified) | -24.5 | 1.6 | -10.6 | -5.1 | -1.8 | -11.1 | -1.0 | -7.1 | 4.3% | -0.1
CN(CCOc1ccccc1)CC(=O)Nc1ccc(Cl)c(S(=O)(=O)N(C)C)c1 | 66.6* | -1.4 | -4.4 | -37.2* | -33.4* | 2.3* | -0.4 | 22.4 | -3.3% | 0.7
CCOC(=O)C1=C(C)NC(C)=C(C(=O)OCC)C1/C=C/c1ccccc1OC | 39.6 | -1.6 | -11.0 | . | . | . | . | -9.6 | 1.9% | 0.1
O=C(c1ccccc1Br)N1CCN(Cc2ccc3c(c2)OCO3)CC1 | 9.4 | -0.7 | 0.4 | -4.9 | -5.9 | 2.5 | 0.8 | -9.7 | . | -0.7
CS(=O)(=O)N1CCc2ccc(NC(=O)C3CCCO3)cc2C1 (stereo unspecified) | -9.9 | 0.1 | . | 2.4 | 6.5 | -0.8 | -5.3 | -3.6 | 0.5% | -0.4
CCOC(=O)c1c(NC(=O)COC(=O)c2nccnc2N)sc2c1CCC2 | . | . | 11.4 | 4.3 | -3.4 | -0.6 | 1.0 | . | -10.9% | 0.2
O=C(Nc1ccc(F)cc1)N1CCn2c(nc3ccccc32)C1 | 13.3 | -0.4 | 4.5 | -19.2 | -16.4 | -6.8 | -0.2 | -35.2 | 7.6% | 0.7
O=C(NC1CCS(=O)(=O)C1)C1CCCCN1S(=O)(=O)c1ccc(Cl)cc1 (stereo unspecified) | -16.8 | 4.8 | -3.5 | 9.3 | 0.6 | 0.4 | 3.7 | -5.1 | 2.3%&2.1% | 0.4
COc1ccc(CCNC(=O)c2cc3c(=O)n(C)c4ccccc4c3n2C)c(OC)c1 | 11.5 | 0.5 | -10.5 | -2.3 | -0.2 | 2.0 | 2.1 | -4.1 | -165.3% | -0.5
CCCCN(C(=O)C1CCN(C(=O)c2ccccc2C)CC1)c1c(N)n(CCCC)c(=O)[nH]c1=O | -10.1 | -4.5 | -0.2 | 3.4 | 9.1 | -2.4 | -11.5 | -3.0 | . | 1.0
CC(C)CN(C(=O)c1ccc(N2CCCC2=O)cc1)c1c(N)n(Cc2ccccc2)c(=O)[nH]c1=O | . | . | -5.8 | 4.7 | 5.7 | -1.9 | -0.5 | . | 0.2% | 1.8
Cc1nc2ccccc2c2c1C(=O)N(CCC1=CCCCC1)C2=O | 7.7 | 3.2 | . | . | . | . | . | 22.1 | -10.9% | .
CNC(=S)N/N=C(\C)c1ccc(C)c(C)c1 | -12.0 | 1.8 | -2.9 | . | . | . | . | -20.4 | 0.5% | -0.5
COC(=O)C1=C[C@@H](C(=O)OC)[C@@H]2C3=C(C(=O)[C@@]2(C)NC(=O)c2ccccc2)[C@H](c2ccccc2)n2c(=O)n(-c4ccccc4)c(=O)n2[C@@H]3C1 | -13.4 | -2.5 | -5.8 | . | . | . | . | -6.2 | . | -0.5
CCCCC1OC23CCCCC2C(C#N)(C#N)C1(C#N)C(=N)O3 (stereo unspecified) | -8.1 | 52.6* | -10.3 | 13.3 | -2.1 | 3.9 | -16.0 | -4.1 | ? | 0.7

Screens: PubChem BioAssay, several laboratories

Not all compounds are listed (hit frequency here may not be typical).
